# Screening results from PubChem BioAssay.
# ClpP mod – qHTS Assay for Activators of ClpP | Potency, µM (titrated, usually from 57.5 µM), for inactives: at the top dose activity change, negative = active | purified B. subtilis ClpP, FRET peptide cleavage, 20 min | actives 1.9% (n = 340,000); active = well fitted falling curve with a large enough effect; inconclusive = small, poorly fitted or top-dose-only effect; inactive = no such curve, though single readings can be large or run the other way; also: the source files actives as falling curves though it sought activators and does not explain the sign; nearly all actives have a fitted effect of over 65% in size; many hits overshoot -100%
# Target sequence (P80244 whole entry, looked up): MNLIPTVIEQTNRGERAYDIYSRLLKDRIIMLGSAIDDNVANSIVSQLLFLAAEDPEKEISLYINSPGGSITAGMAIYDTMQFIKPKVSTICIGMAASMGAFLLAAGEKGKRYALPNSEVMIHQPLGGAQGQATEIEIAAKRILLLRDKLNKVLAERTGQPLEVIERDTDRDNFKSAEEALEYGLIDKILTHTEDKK
#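 Purified B. subtilis ClpP, 10 microg/mL final in Tris/HCl pH8 with KCl, BSA, glycerol and Tween-20, cleaved an Abz/nitrotyrosine-quenched decapeptide. Fluorescence (ex 320, em 430) was read at 0 and 20 min at room temperature. Delta was normalized to 5.8 microM ADEP and DMSO/no-enzyme controls.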
# PINK1 modulator – changes PINK1 expression; PINK1 immunofluorescence, high-content cytometry, 24 h; Potency, µM (top dose mostly 76.6 µM), for the others: top-dose activation (PINK1 increase), usual class: activators; actives 0.2% (n = 410,000); AID 624263; active = well fitted activation curve with a large enough effect; inconclusive = small, poorly fitted or top-dose-only effect; inactive = flat fitted curve, though single readings scatter; cell line not stated here;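 also: % of control where 0% means no effect; nearly all actives have a fitted effect of over 65% in size; a mitochondrial uncoupler was the plate control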
#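 Cells are seeded, rested 12 hours, then given compound at five concentrations or DMSO for 24 hours. After fixation, blocking and antibody staining, PINK1 amount and mitochondrial localization are scored; CCCP serves as control.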
# The depositor's hits bear a star; u = inconclusive. Potency is read from the fitted curve at half-maximal effect. An excerpt. The share of hits here may be higher or lower than overall.
SMILES,ClpP mod,PINK1 modulator
CC(=O)c1cccc(NC(=O)c2nc(-c3ccccc3)n(-c3cccc(Cl)c3)n2)c1,-1.7%,-0.5%
CCOc1ccccc1NC(=O)c1c(NC(=O)C(C)Oc2ccc(Cl)cc2)sc2c1CCCCC2 (stereo not given),-3.6%,0.7%
CCOC1CCCc2oc(-c3ccc(OC)cc3)c(C(=O)NCCCCO)c21 (stereo not given),5.1%,0.2%
CCOc1ccc(NS(=O)(=O)c2ccc3[nH]cc(C(=O)NCCc4ccccc4)c(=O)c3c2)cc1,-3.0%,0.0%
COc1ccc(NC(=O)CCc2nc3cccnc3n2Cc2cccs2)c(OC)c1,-16.8%,3.0%
CCCCNc1nc2c(c(=O)n(Cc3ccc(Cl)c(Cl)c3)c(=O)n2C)n1C,1.5%,2.2%
CCN(C(=O)CN(C)S(=O)(=O)c1ccc2c(c1)n(C)c(=O)c(=O)n2C)c1cccc(C)c1,u,-1.1%
CCOCCc1nn2c(=O)cc(COC(=O)COc3ccccc3Cl)nc2s1,-1.0%,0.9%
Cc1cc(C)cc(NC(=O)Nc2ccccc2OCc2cc(=O)n3ccccc3n2)c1,0.3%,-6.1%
CCC(=O)Nc1cccc(-c2nc3cc(C)ccc3o2)c1,4.5%,-0.7%
COCCCNC(=O)c1c(NC(=O)c2cc(=O)c3ccccc3o2)sc2c1CCCC2,0.4%,0.4%
CCOc1cc(C2NC(=O)c3c(sc4c3CCN(C)C4)N2)ccc1OC(=O)c1ccc(Br)cc1 (stereo not given),4.4%,-0.5%
Cc1ccc(CCNC(=O)c2c(C)nn(-c3ccc(F)cc3)c2-n2cccc2)cc1,1.0%,0.1%
CCOc1ccc(S(=O)(=O)NCCc2csc3nc(-c4cccc(C)c4)nn23)cc1,2.1%,2.2%
CCOC(=O)c1[nH]c(C)c(CCC(=O)Nc2ccc(N(CC)CC)cc2C)c1C,3.1%,-0.4%
Cn1cc(S(=O)(=O)N2CCCCC2)cc1C(=O)Nc1cccc(C#N)c1,1.7%,-4.4%
CCCCn1c(SCC(=O)NCc2ccc(C)cc2)nc2c(sc3ccccc32)c1=O,-0.2%,1.0%
COc1ccc(NC(=O)c2cnn(-c3ccc(C)cc3)c2-n2cccc2)cc1Cl,-16.7%,1.8%
COc1ccc(/C=C/c2noc(-c3ccccc3O)n2)cc1OC,3.5%,3.6%
O=C(Cn1cc(S(=O)(=O)N2CCN(c3ccccc3F)CC2)c2ccccc2c1=O)Nc1cccc(C(F)(F)F)c1,-27.2%,3.8%
O=C(NCCC1=CCCCC1)c1ccc2c(c1)ncn2-c1ccc(F)c(F)c1,-0.9%,0.0%
CCc1nn(CC(=O)NCCC(C)C)c(=O)c2cc3occc3n12,-2.3%,0.5%
CCC(=O)N1CCc2cc(Br)cc(S(=O)(=O)CCC(=O)Nc3ccc(C)c(C)c3)c21,0.9%,1.6%
COc1ccccc1N1CCN(c2ccc(=O)n(CC(=O)O)n2)CC1,-1.3%,4.0%
COc1ccc(OC)c(CNC(=O)c2c3c(nc4ccccc24)C(=O)N(C2CCCCC2)C3)c1,0.2%,1.5%

# Record cards, as listed above:
# Entry for `CCOc1ccc(S(=O)(=O)NCCc2csc3nc(-c4cccc(C)c4)nn23)cc1` : ClpP mod: 2.1%; PINK1 modulator: 2.2%
# Entry for `COc1ccccc1N1CCN(c2ccc(=O)n(CC(=O)O)n2)CC1` : ClpP mod: -1.3%; PINK1 modulator: 4.0%

# Next section.
SMILES,ClpP mod,PINK1 modulator
Cc1ccc(-c2nc3cc(Cl)ccc3o2)cc1NC(=O)c1cc2ccccc2o1,6.6%,1.4%
Cc1nn(C)c2c1c(-c1ccccc1)cc(=O)n2CC(=O)NC(C)(C)C,4.3%,1.5%
COc1ccc(NC(=O)c2sc3nc[nH]c(=O)c3c2C)cc1,-3.1%,-0.1%
CCOC(=O)c1cc(S(=O)(=O)NCc2ccc(F)cc2)[nH]n1,0.2%,2.5%
CCc1ccc(NC(=O)C2CCCN2S(=O)(=O)c2cccc3nsnc23)cc1 (stereo not given),0.6%,0.2%
COc1ccc(-n2c(C)nnc2SCc2nc(-c3ccc(OC)c(OC)c3)no2)cc1,0.5%,0.0%
COc1ccc(CNC(=O)c2ccc(Sc3ccc(Cl)cc3)c(NC(C)=O)c2)c(OC)c1,-7.5%,0.7%
Cc1ccc(-c2noc(CN(C3CCCCC3)S(=O)(=O)c3ccc(C)cc3)n2)cc1,-2.4%,1.0%
Cc1cccc(N2C(=O)CSC23C(=O)N(Cc2cccc(C(F)(F)F)c2)c2ccccc23)c1 (stereo not given),-1.6%,-3.8%
Cc1ccc(OCc2nc(-c3ccc(C(=O)NCCc4ccc(Cl)cc4)cc3)oc2C)cc1,-8.2%,1.0%
CCn1cc(S(=O)(=O)c2ccccc2)c(=O)c2cc(F)c(N3CCN(c4ccccc4)CC3)cc21,u,-1.2%
CCc1ccc(OCC(=O)N(Cc2ccco2)Cc2ccco2)cc1,1.6%,0.6%
O=C(CC1N=C2c3ccccc3N=C(SCc3ccccc3F)N2C1=O)NCCc1ccccc1 (stereo not given),4.4%,21.9%
CCNc1oc(-c2ccc(COc3ccc(Cl)cc3)o2)nc1C#N,-178.6%,-1.0%
COC(=O)c1c(NC(=O)c2ccc(S(=O)(=O)N3CCC(C)CC3)cc2)sc2c1CCN(C)C2,125.2%,u
COc1ccc(S(=O)(=O)Nc2cccc(-c3ccc(N4CCCCCC4)nn3)c2)cc1F,-2.8%,0.7%
O=C(NCc1ccco1)c1ccc(Cn2c(SCc3ccccc3)nc3cccnc32)cc1,3.8%,0.8%
CCc1ccc(NC(=O)CSC2=Nc3ccccc3C3=NC(CCC(=O)NCc4cccs4)C(=O)N23)cc1 (stereo not given),-8.7%,0.4%
Cc1ccc(N2CCN(C(=O)NCc3noc4ccccc34)CC2C)cc1 (stereo not given),-0.2%,0.4%
CCc1ccc(-n2c(N3CCN(c4cccc(C)c4C)CC3)nc3ccccc3c2=O)cc1,u,-0.2%
O=C(NC1(C(F)(F)F)C(=O)Nc2c1c(=O)[nH]c(=O)n2CCc1ccccc1)c1ccc(Cl)cc1 (stereo not given),-0.4%,-0.5%
CC1=C(C(=O)OC2CCCC2)C(c2c(F)cccc2Cl)CC(=O)N1 (stereo not given),0.5%,10.2%
Cc1c(C(=O)Nc2c(F)cccc2F)sc2ncn(Cc3ccccc3F)c(=O)c12,-19.6%,0.1%
CC(CNC(=O)C1CCN(S(=O)(=O)c2ccc3c(ccn3C)c2)CC1)c1ccccc1 (stereo not given),-1.1%,-0.1%
COc1ccc([C@H]2C[C@@H](O)C[C@@H](CCn3cc(-c4ccccc4)nn3)O2)cc1,0.6%,0.5%

# Arranged by SMILES length (rising): part of the list above
SMILES,ClpP mod,PINK1 modulator
CCc1ccc(OCC(=O)N(Cc2ccco2)Cc2ccco2)cc1,1.6%,0.6%
CCOC(=O)c1cc(S(=O)(=O)NCc2ccc(F)cc2)[nH]n1,0.2%,2.5%
CCc1ccc(-n2c(N3CCN(c4cccc(C)c4C)CC3)nc3ccccc3c2=O)cc1,u,-0.2%

# (cont.)
SMILES,ClpP mod,PINK1 modulator
CCc1cccc(NC(=O)c2ccc(CNS(=O)(=O)c3ccc4c(c3)C(C)(C)C(=O)N4C)cc2)c1,-4.3%,-0.1%
CCC(C(=O)Nc1cc(OC)ccc1OC)n1nc(-c2ccccc2)c2c(c1=O)CCCC2 (stereo not given),-2.8%,2.2%
CC(NC(=O)Cc1ccc(NC(=O)N2CCCCc3ccccc32)cc1)c1ccccc1 (stereo not given),-0.5%,-2.1%
COc1cc(C(=O)OCc2cc(=O)n3nc(C4CCCCC4)sc3n2)cc(OC)c1OC,-2.0%,-0.2%
COc1ccccc1NC(=O)c1c(NC(=O)Cc2ccccc2)sc2c1CCC(C(C)(C)C)C2 (stereo not given),-17.5%,3.2%
COc1ccccc1NC(=O)CSC1=Nc2ccccc2C2=NC(CCC(=O)NCc3cccs3)C(=O)N12 (stereo not given),0.0%,0.4%
COc1cc(C2Nc3ccccc3-c3nnc(SCc4ccc(C)cc4)nc3O2)cc(OC)c1O (stereo not given),-9.3%,0.4%
CCOC(=O)C(CC)Sc1ccc2nnc(-c3ccc(F)cc3)n2n1 (stereo not given),-24.1%,-0.1%
Cc1ccc(C)c(NC(=O)/C(C#N)=C/c2ccc(C(C)C)cc2)c1,-1.7%,24.4%
CCC(C(=O)Nc1ccc(F)cc1F)n1nc(-c2ccccc2)c2c(c1=O)CCCC2 (stereo not given),0.3%,-0.4%
COc1ccc2c(c1)c(=O)c(C(=O)c1ccc(Cl)cc1)cn2CC(=O)Nc1ccc2c(c1)OCCO2,3.5%,1.4%
COc1ccc(OC)c(-c2noc(CSc3nnc(Cc4ccccc4)n3-c3cccc(C)c3)n2)c1,-2.4%,0.3%
O=C(COc1ccc(Cl)cc1)Nc1ccc2nc(SCC(=O)N3CCCC3)sc2c1,-9.5%,0.5%
O=C(Nc1ccc(-c2cc(C(F)(F)F)nn2-c2ccccc2)cc1)c1cccc(F)c1,u,u
Cc1ccc2cccc(NC(=O)c3ccc(C#N)cc3F)c2n1,-4.9%,1.4%
CCOC(=O)c1ccc(NS(=O)(=O)c2ccc(Br)s2)cc1,-1.3%,3.3%
COc1ccc(Cl)cc1NC(=O)c1c(C(=O)Nc2cccc(C)c2C)sc2nc(C)cc(=O)n12,-0.3%,3.4%
Cc1cccc(OC(=O)CSc2nnc(CNC(=O)c3ccccc3)o2)c1C,-2.8%,1.7%
CCOC(=O)c1c(Oc2ccc(OC)cc2)nnc(-c2ccccc2)c1-c1ccccc1,-5.8%,0.0%
Cn1c(=O)oc2cc(S(=O)(=O)N3CCCC(C(=O)NCCc4ccc(Cl)cc4)C3)ccc21 (stereo not given),1.8%,7.8%
CCn1nc(-c2ccccc2)c(-c2ccccc2)c(C(=O)Nc2ccc(NC(C)=O)cc2)c1=O,0.3%,-0.7%
CCOc1ccc(-c2nc(CSCC(=O)NCCc3ccc(OCC)c(OCC)c3)c(C)o2)cc1,-22.8%,14.5%
COc1cccc(-c2cc(C(=O)Nc3ccc(OC)cc3OC)no2)c1,2.9%,1.7%
CCCCN(C)S(=O)(=O)c1ccc(C(=O)Nc2ccc(-c3nc4ccc(C)cc4s3)cc2)cc1,-5.3%,-0.8%
Cc1cccc(-c2noc(C3CC(=O)N(c4ccc5c(c4)OCCO5)C3)n2)c1 (stereo not given),0.9%,2.0%

# More results
SMILES,ClpP mod,PINK1 modulator
Cn1nccc1C(=O)NCc1ccc2c(c1)CCN2C(=O)c1ccc(Cl)cc1,0.4%,1.0%
Cc1cccc(N2CCN(C(=O)Cn3ncc4c3-c3cc(C)ccc3OC4)CC2C)c1 (stereo not given),-0.5%,1.4%
Cc1cccc(C(=O)OCc2cc(=O)n3nc(C4CCCCC4)sc3n2)c1,-2.9%,0.1%
Cc1ccc2nc(-c3ccc(NC(=O)c4ccccc4S(C)(=O)=O)cc3)sc2c1,4.0%,10.6%
COc1ccc(-n2nc(C(=O)NCCc3ccc(Cl)cc3)c3c4ccccc4n(C)c3c2=O)cc1,u,1.9%
Cc1ccc2c(c1)C(c1ccc(F)cc1)N(C(=O)c1ccc(S(=O)(=O)N3CCCCC3)cc1)CC(=O)N2 (stereo not given),-5.8%,-1.4%
Cc1ccc(O)c(NC(=O)c2ccc(Br)c(S(=O)(=O)N3CCCCC3)c2)c1,-2.5%,39.8µM*
COc1ccc(CCNC(=O)c2cc3cccc4c3n2CC(C)S4)c(OC)c1OC (stereo not given),31.6µM*,1.7%
CCOc1ccc(-n2c(SCC(=O)N3CCCC3)nc3c([nH]c4ccccc43)c2=O)cc1,0.8%,-3.3%
CCOc1ccc(CC(=O)Nc2ccc3c(c2)N(C)C(=O)c2ccccc2S3)cc1OCC,0.4%,3.7%
Cn1ccc2cc(S(=O)(=O)N3CCCN(C(=O)Nc4ccc(Br)cc4)CC3)ccc21,-21.4%,0.4%
CC(=O)N1CCCc2cc(S(=O)(=O)N3CCC(N(C)C(C)C)CC3)ccc21,1.6%,1.7%
Cc1ccc(CNC(=O)c2cc3sc(Cl)cc3n2C)cc1,1.6%,0.1%
Cc1cccc(N(C)C(=O)CS(=O)(=O)c2cccc3nsnc23)c1,-0.9%,19.6%
CCOC(=O)Cn1c(=O)n(CC2CCCO2)c2nc(-c3ccc(OCC)cc3)nc(C(N)=O)c21 (stereo not given),-28.4%,-0.7%
Cc1noc(NS(=O)(=O)c2ccc(NC(=O)COc3ccccc3Br)cc2)c1C,-15.2%,1.6%
CC1=C(C(=O)Nc2cccc(C(F)(F)F)c2)C2(CCN(C(C)C)CC2)OC1=O,0.0%,-0.8%
Cc1c(C(=O)NC(C)c2ccccc2)sc2ncnc(N(C)C3CCCCC3)c12 (stereo not given),u,-0.7%
COc1ccc(NC(=O)Cn2cnc3ccc(S(=O)(=O)N4CCC(C)CC4)cc3c2=O)cc1Cl,-0.1%,9.7%
O=C(NCc1ccc(F)cc1)c1ccc2oc(=O)n(Cc3ccccc3)c2c1,0.7%,-0.4%

# Individual results from the entries so far:
# For PINK1 modulator, `Cc1ccc2c(c1)C(c1ccc(F)cc1)N(C(=O)c1ccc(S(=O)(=O)N3CCCCC3)cc1)CC(=O)N2` (stereo not given) reads -1.4%
# For ClpP mod, `Cc1ccc(CNC(=O)c2cc3sc(Cl)cc3n2C)cc1` reads 1.6%
# For ClpP mod, `Cc1ccc2nc(-c3ccc(NC(=O)c4ccccc4S(C)(=O)=O)cc3)sc2c1` reads 4.0%
# For ClpP mod, `Cc1cccc(C(=O)OCc2cc(=O)n3nc(C4CCCCC4)sc3n2)c1` reads -2.9%
